Assay outcomes (PubChem BioAssay)
TRPML1 ag: human mucolipin-1 channel agonism; Q9GZU1; activation, % (test concentration not listed); TRPML1-expressing cells, Ca2+ dye fluorescence, FDSS; host cell line not named in the record; reference of the full effect not given here; 410,000 tested, 0.12% active; AID 624414; in the data active = activation above about 50%; inconclusive = about 30% to 50%; inactive = below about 30%; further: 0% is about no effect; the text of the record puts the active cut at 80%
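Tet-induced TRPML1-DL cells, 1,500 per well, cultured overnight, were loaded with a no-wash Ca2+ dye for 45–90 min. Calcium fluorescence was recorded on the FDSS for 110 s after compound addition, before the EC80 agonist (4 uM 54-4) was added.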
TRPV1 PAM: human TRPV1 potentiation. Q8NER1. TRPV1-expressing cells, Fluo-8 calcium influx, capsaicin EC20 potentiation; host cell line not named in the record; control for the full effect not named in the record. potentiation, % at 8.33 µM. 320,000 tested, 0.02% active. AID 540277; active means potentiation above 80%; inconclusive means 30% to 80%; inactive means below 30%; further: 0% is about no effect
Target sequence (Q8NER1 whole entry, looked up): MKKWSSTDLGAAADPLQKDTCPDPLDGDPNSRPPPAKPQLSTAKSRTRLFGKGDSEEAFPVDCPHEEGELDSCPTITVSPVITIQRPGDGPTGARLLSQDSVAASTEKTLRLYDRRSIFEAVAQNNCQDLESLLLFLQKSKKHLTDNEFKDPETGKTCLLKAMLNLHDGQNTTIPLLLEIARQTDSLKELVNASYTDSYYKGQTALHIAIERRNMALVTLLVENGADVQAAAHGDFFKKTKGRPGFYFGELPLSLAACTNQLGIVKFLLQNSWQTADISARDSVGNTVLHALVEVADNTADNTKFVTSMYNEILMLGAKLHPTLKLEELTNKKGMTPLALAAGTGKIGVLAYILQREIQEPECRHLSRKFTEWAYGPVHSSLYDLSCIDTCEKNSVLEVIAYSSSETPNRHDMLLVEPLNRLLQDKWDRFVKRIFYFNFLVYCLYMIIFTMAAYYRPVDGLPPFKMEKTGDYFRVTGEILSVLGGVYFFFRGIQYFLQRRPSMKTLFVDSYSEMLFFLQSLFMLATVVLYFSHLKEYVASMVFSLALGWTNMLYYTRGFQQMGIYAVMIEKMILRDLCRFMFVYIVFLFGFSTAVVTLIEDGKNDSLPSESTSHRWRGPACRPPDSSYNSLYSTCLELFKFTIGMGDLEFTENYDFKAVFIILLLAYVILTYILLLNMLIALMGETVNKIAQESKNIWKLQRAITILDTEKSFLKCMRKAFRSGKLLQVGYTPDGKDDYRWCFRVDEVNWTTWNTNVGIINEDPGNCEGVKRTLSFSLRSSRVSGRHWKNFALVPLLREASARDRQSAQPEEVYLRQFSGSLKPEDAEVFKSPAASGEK
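TRPV1-expressing cells were cultured overnight at 35.5C and loaded with Fluo-8 calcium dye for 40 to 90 min at room temperature. After a 10 s baseline, compound was added and calcium influx was read kinetically for 3 min (ex 480/em 520 nm).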
* hit, by the source's call; & = joins results of further samples. Some of the compounds tested, so the mix of outcomes need not match the whole.

For Cc1cc(C=O)c2c(c1)C=CC1(Oc3ccccc3C(=O)N1C)O2 (stereo not given) the results were TRPV1 PAM -13.
CCC(C)n1c(-c2ccco2)nc2nc3ccccc3nc21 (stereo not given) was read as TRPV1 PAM -14.
Cc1ccc(NC(=O)N(Cc2ccco2)Cc2cc3cc(C)cc(C)c3nc2Cl)cc1 was read as TRPV1 PAM 10.
`Cc1ccc(S(=O)(=O)NCc2ccc(C(=O)NCc3cccnc3)cc2)cc1` gave TRPV1 PAM -5.
O=C(CNc1cc(S(=O)(=O)N2CCCC2)ccc1OCC(F)(F)F)Nc1cc(Cl)cc(Cl)c1 was read as TRPV1 PAM 3.
Clc1ccc2nc(NC3=NCN(CCN4CCOCC4)CN3)nc(-c3ccccc3)c2c1 was read as TRPV1 PAM 4.
Screening O=C1OC(=O)C2C3CCC(O3)C12 (stereo not given) returned TRPV1 PAM -3.
`Cc1ccc(C)c(-n2nnnc2SCC(=O)c2c(N)n(C)c(=O)n(C)c2=O)c1` gave TRPV1 PAM 0.
CC1CCCN(C(=O)c2cc(N3C(=O)C4C5CCC(C5)C4C3=O)ccc2Cl)C1 (stereo not given) was read as TRPV1 PAM -2.
`COCCn1c(-c2cccs2)nc2c(c(=O)c3ccccc3n2C)c1=O` gave TRPV1 PAM 3.
`c1ccc(N(c2ccccc2)c2nc(N3CCOCC3)nc(N3CCOCC3)n2)cc1` gave TRPV1 PAM -22.
Screening Cc1cc(C)c(NC(=O)C(C)Sc2nnc(-c3ccco3)n2-c2ccccc2)c(C)c1 (stereo not given) returned TRPV1 PAM 1.
Cc1ccn2cc(-c3ccc(S(=O)(=O)N4CCOCC4)cc3)nc2c1 was read as TRPV1 PAM 1.
Screening CNc1nc(SC)n(C)c(=O)c1N=O returned TRPV1 PAM 8.
`O=C(CSc1nnnn1-c1cccc(Cl)c1)Nc1ccc2c(c1)CCC2` gave TRPV1 PAM -5.
`Cc1ccc(N2C(=O)c3cccc4c(C(=O)O)ccc(c34)C2=O)cc1` gave TRPV1 PAM -6.
`CC1(C)Oc2ccc(/C=C/C(=O)N3CCOCC3)c(O)c2C(N2CCOCC2)C1O` (stereo not given) gave TRPV1 PAM 1.
Screening COc1ccc(C2CC(=O)C(C(c3ccc(O)cc3)C3C(=O)CC(c4ccc(OC)cc4)CC3=O)C(=O)C2)cc1 (stereo not given) returned TRPV1 PAM 9.
CC(=O)[C@@H]1[C@@H]2C(=O)N(C3CCCCC3)C(=O)[C@@H]2C2c3ccccc3C=CN21 (stereo not given in full) was read as TRPV1 PAM -6.
For Cc1coc2cc3oc(=O)c4c(c3cc12)CCC4 the results were TRPV1 PAM 0.

Arranged by heavy-atom count (smallest number first): part of the list above
Screening CNc1nc(SC)n(C)c(=O)c1N=O returned TRPV1 PAM 8.
For Cc1coc2cc3oc(=O)c4c(c3cc12)CCC4 the results were TRPV1 PAM 0.
`Cc1ccc(N2C(=O)c3cccc4c(C(=O)O)ccc(c34)C2=O)cc1` gave TRPV1 PAM -6.
`CC1(C)Oc2ccc(/C=C/C(=O)N3CCOCC3)c(O)c2C(N2CCOCC2)C1O` (stereo not given) gave TRPV1 PAM 1.
`c1ccc(N(c2ccccc2)c2nc(N3CCOCC3)nc(N3CCOCC3)n2)cc1` gave TRPV1 PAM -22.

(more compounds)
For COc1cc(OC)cc(-c2nnc(Sc3ccc(C=O)cc3[N+](=O)[O-])o2)c1 the results were TRPV1 PAM 22.
Cc1nc(SCC(=O)c2cc3ccccc3oc2=O)c(C#N)c(C)c1C(=O)Nc1ccccc1 was read as TRPV1 PAM -2.
Cc1ccc(C(C)C)c(OCC(=O)NN=C(CCl)CCl)c1 was read as TRPV1 PAM -4.
Screening N/C(=N\c1nc(C(F)(F)F)cc(=O)[nH]1)Nc1ccc(Cl)cc1 returned TRPV1 PAM 7.
`CCC1=C/C(=C\c2ccc3c(c2)OCO3)C(=O)S1` gave TRPV1 PAM -3.
CCn1cc(NC(=O)CCl)c(C)n1 was read as TRPV1 PAM 0.
Screening CC1CCN(c2nc3ccccc3nc2C(C#N)C(=O)NC2CCCCC2)CC1 (stereo not given) returned TRPV1 PAM 2.
`CC(=O)Oc1c(C)cc(O)c2ccccc12` gave TRPV1 PAM -1.
`CCCCCCCCCCCCCCCC(=O)OC[C@H](COP(=O)([O-])OCC[N+](C)(C)C)OC(=O)CCCCCCCCCCCCCCC` gave TRPV1 PAM -12.
Screening COc1cc(C2NCCc3c2[nH]c2ccccc32)ccc1OC(C)C (stereo not given) returned TRPV1 PAM -3.

Entries above with an aryl thioether with sulfur outside any ring (6):
`Cc1ccc(C)c(-n2nnnc2SCC(=O)c2c(N)n(C)c(=O)n(C)c2=O)c1` gave TRPV1 PAM 0.
Screening Cc1cc(C)c(NC(=O)C(C)Sc2nnc(-c3ccco3)n2-c2ccccc2)c(C)c1 (stereo not given) returned TRPV1 PAM 1.
Screening CNc1nc(SC)n(C)c(=O)c1N=O returned TRPV1 PAM 8.
`O=C(CSc1nnnn1-c1cccc(Cl)c1)Nc1ccc2c(c1)CCC2` gave TRPV1 PAM -5.
For COc1cc(OC)cc(-c2nnc(Sc3ccc(C=O)cc3[N+](=O)[O-])o2)c1 the results were TRPV1 PAM 22.
Cc1nc(SCC(=O)c2cc3ccccc3oc2=O)c(C#N)c(C)c1C(=O)Nc1ccccc1 was read as TRPV1 PAM -2.

Following part.
O=C(O)c1cc(-c2ccncc2)nc2ccc(F)cc12 was read as TRPV1 PAM 0.
COCCCn1c2nc3ccccc3nc2c2c(=O)n(Cc3cccs3)cnc21 was read as TRPV1 PAM 10.
Screening COc1ccc(Nc2nc(Cl)nc(N3CCN(c4ccc(OC)cc4)CC3)n2)cc1 returned TRPV1 PAM 10.
Screening COc1ccc(Br)cc1C1NC(c2ccc3c(c2)OCO3)=CC(c2ccccc2O)N1 (stereo not given) returned TRPML1 ag -0.2.
`Cc1cc(C)c(S(=O)(=O)Nc2cccc(C(F)(F)F)c2)c(C)c1` gave TRPML1 ag 0.6.
Screening COc1ccc(CNc2ncnc3nc[nH]c23)cc1 returned TRPML1 ag 0.3&0.0.
Screening CN(C)c1ccc(/C=C/c2ccnc3c2ccc2c(/C=C/c4ccc(N(C)C)cc4)ccnc23)cc1 returned TRPML1 ag 0.4.
Screening CC1(C)C2CCC1(C)C(NC(=O)COC(=O)c1ccc(S(C)(=O)=O)c([N+](=O)[O-])c1)C2 (stereo not given) returned TRPML1 ag 0.6.
For Cc1ccc2cc(CN(Cc3ccco3)Cc3nnnn3Cc3ccco3)c(=O)[nH]c2c1 the results were TRPML1 ag 0.0.
Cc1ccccc1S(=O)(=O)N1CCN(c2nc(-c3cccs3)nc3ccccc23)CC1 was read as TRPML1 ag -0.2.
`O=C(CNC(=O)c1ccccc1)OCC(=O)c1ccccc1` gave TRPML1 ag -0.2.
Screening C=CCn1c(SCC)nc2ccccc2c1=O returned TRPML1 ag -1.1.
`Nc1nc(N)c(N=O)c(N)n1` gave TRPML1 ag -0.1.
Screening Nc1ncnc2oc(-c3ccoc3)c(-c3ccco3)c12 returned TRPML1 ag 0.3.
Screening O=C(Nc1ccc(Br)cc1Cl)c1cnn2c1NC(=C1CC1)C=C2C(F)F returned TRPML1 ag 0.5.
Screening CN(C)c1ccc(/C=C/N2C=CCc3c2ccc2ccccc32)cc1 returned TRPML1 ag 0.9.
Screening CC(OC(=O)c1ccccc1OCC(=O)Nc1ccc(Br)cc1)C(=O)NC1CCCC1 (stereo not given) returned TRPML1 ag -0.2.
`N#Cc1nc(COc2ccc(-c3ccccc3)cc2)oc1N1CCC(C(N)=O)CC1` gave TRPML1 ag -0.7.
O=c1oc2ccc3ccccc3c2cc1-c1nc2c(s1)CCc1ccccc1-2 was read as TRPML1 ag 15.
`O=C(Nc1nnc(Cc2ccc(Cl)cc2)s1)C1CCN(C(=O)c2ccco2)CC1` gave TRPML1 ag 1.1.
`COc1cc(C=O)cc(OC)c1[N+](=O)[O-]` gave TRPML1 ag -0.4.
For O=CC(=O)c1ccc(Br)cc1 the results were TRPML1 ag -0.3.
CN(C)c1ccc(/C=C/c2ccnc3ccccc23)cc1Cl was read as TRPML1 ag -0.2.
For N#Cc1ccc[n+](CC(=O)c2ccc(O)c(O)c2)c1 the results were TRPML1 ag 6.5.
`O=C(C[N+]1(CCO)CCOCC1)c1cccs1` gave TRPML1 ag -0.1.
COC(=O)c1nc(N2CCN(S(=O)(=O)c3ccc(C)cc3)CC2)c2ccccc2n1 was read as TRPML1 ag -0.7.
CCCCNC(=O)C(CC)n1c(SCc2cccc(F)c2)nc2ccncc21 (stereo not given) was read as TRPML1 ag -0.6.
O=S1(=O)CCO[C@H]2CCCC[C@@H]2N1Cc1ccc(Cl)cc1 was read as TRPML1 ag -1.1.
CC(C)(C)c1ccc(S(=O)(=O)/C=C/C#N)cc1 was read as TRPML1 ag 3.0.
`COc1ccc2c(c1)c1nnc(SCCN3CCOCC3)nc1n2C` gave TRPML1 ag -0.5.
For C[N+]1(CC(=O)c2ccc(F)cc2)CCc2ccccc2C1 (stereo not given) the results were TRPML1 ag -0.7.
`c1cc2c3c(c1)CCC[N+]3(C1CCCCC1)CCC2` gave TRPML1 ag 0.2.
Screening CCCCCCCCN1[C@@H](CC(=O)OC)c2ccc(/C=C/C(=O)OC)cc2S1(=O)=O returned TRPML1 ag -0.7.
CC(C)(C)c1ccc(C(=O)C[n+]2ccc(Cl)c3ccc(Cl)cc32)cc1 was read as TRPML1 ag -0.6.
`Cc1ccc(-c2nc3ccccn3c2Nc2ccc(F)cc2)o1` gave TRPML1 ag -0.6.
Screening COc1cc(OC)c(/C=C/c2ccncn2)c(OC)c1 returned TRPML1 ag -1.1.
`C[n+]1ccc(/C=C/c2cc[n+](C)c3ccccc23)c2ccccc21` gave TRPML1 ag -0.6.
Screening C#CCN(C1CCCC1)S(=O)(=O)C=C returned TRPML1 ag -0.6.
Screening Nc1nc(NCc2ccc(Cl)c(Cl)c2)c2[nH]cnc2n1 returned TRPML1 ag -0.8&-0.8.
`CN1CCN(C(=O)c2ccc3c(=O)n(Cc4ccc5c(c4)OCO5)c(=S)[nH]c3c2)CC1` gave TRPML1 ag 0.3.
For COc1ccc(CNCc2ccccc2)cc1COc1ccc(NC(C)=O)cc1 the results were TRPML1 ag -0.2.
`COc1ccc(OC)c2c(/C=C/c3c[nH]c4ccccc34)ccnc12` gave TRPML1 ag 0.9.
CCOC(=O)N(C(=O)c1ccccc1)c1ccccc1 was read as TRPML1 ag -0.2.
`Fc1ccc(/C=C/c2ccc3ccccc3n2)cc1` gave TRPML1 ag 0.3.
Screening O=C(CNC(=O)C1CCCCC1)OCCOc1ccccc1 returned TRPML1 ag -1.1.
`O=C1COc2ccc(-c3csc(-c4ccc(Cl)cc4)n3)cc2N1` gave TRPML1 ag -0.6.
`O=C(NC1CCCCC1)[C@@H]1CC=C[C@@H]2CCN(Cc3ccc(Cl)c(Cl)c3)C(=O)[C@@H]21` gave TRPML1 ag -0.6.
Screening Ic1ccc(Nc2nc(NCCN3CCOCC3)nc(N3CCCC3)n2)cc1 returned TRPML1 ag -0.9.
CC1(C)CCC(c2ccc(Cl)cc2)=C(CN2CCN(c3ccc(C(=O)NS(=O)(=O)c4ccc(N[C@H](CCN5CCOCC5)CSc5ccccc5)c(S(=O)(=O)C(F)(F)F)c4)cc3)CC2)C1 was read as TRPML1 ag -0.1.
`S=C(NCCCc1cnc[nH]1)NCCCN(Cc1ccc(Cl)cc1)c1ccc(Br)cc1` gave TRPML1 ag 2.7.
For Cc1cc(Cl)nc2ccccc12 the results were TRPML1 ag 0.4.
Screening Cc1ccc2[nH]c(=O)c(CN(CCCO)Cc3nnnn3Cc3ccco3)cc2c1 returned TRPML1 ag -0.1.
`O=c1c2ccccc2sn1-c1cc(S(=O)(=O)N2CCOCC2)ccc1N1CCCCC1` gave TRPML1 ag -0.2.
Oc1cccc2c(CC(O)c3c[nH]c4ccccc34)ccnc12 (stereo not given) was read as TRPML1 ag 0.3.
`CCCN1CNc2c(c(=O)[nH]c(=S)n2CCc2ccc(Cl)cc2)C1` gave TRPML1 ag -0.4.
Screening Cc1ccc2[nH]c(=O)c(CN(Cc3ccco3)Cc3nnnn3Cc3ccccc3)cc2c1 returned TRPML1 ag -0.3.
OC[C@H](S)CS was read as TRPML1 ag -0.4.
For CCCN1CNc2c(c(=O)[nH]c(=S)n2CCc2c(Cl)cccc2Cl)C1 the results were TRPML1 ag 0.0.
For O=C(COC(=O)C12CC3CC(CC(Br)(C3)C1)C2)NCc1ccco1 the results were TRPML1 ag -0.8.
`COc1cc2nc(N3CCOCC3)nc(NC(C)C)c2cc1OC` gave TRPML1 ag -0.5.
O=C(C[n+]1cccc2cc(Cl)ccc21)c1cccc([N+](=O)[O-])c1 was read as TRPML1 ag 9.5.
Screening Brc1ccc(C2C=Cc3ccccc32)cc1 (stereo not given) returned TRPML1 ag -0.4.
For C[N+]1(CC(=O)c2ccc(Oc3ccccc3)cc2)CCOCC1 the results were TRPML1 ag -0.3.
Screening CCN1CCc2c(sc(NC(=S)NC(=O)c3cccc(F)c3)c2C(N)=O)C1 returned TRPML1 ag 8.0.
Screening COc1cc(OC)c(/C=C/c2ccccn2)c(OC)c1 returned TRPML1 ag -0.3.
Screening O=C(C[n+]1csc2ccccc21)c1ccccc1 returned TRPML1 ag -0.6.
Screening COc1ccccc1N1CCN(C(c2ccccc2)c2nnnn2Cc2ccccc2)CC1 (stereo not given) returned TRPML1 ag -1.0.
For O=C(c1ccc2c(=O)n(Cc3ccco3)c(=S)[nH]c2c1)N1CCCC1 the results were TRPML1 ag -0.4.
`Cc1ccc2nc(-c3ccc(C)c(NC(=O)COc4ccc(Cl)cc4)c3)oc2c1` gave TRPML1 ag -0.6.
